GLD-1 TGE inh: GLD-1-TGE RNA interaction inhibition (C. elegans); Q17339; purified GLD-1 + fluorescein TGE RNA, fluorescence polarization; inhibition, % at 5.96 µM; 320,000 tested, 0.44% active;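 active means percent inhibition above a per-plate cutoff, the plate mean of test compounds plus 3 SD, cut at about 30% in these data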;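 further: 0% = DMSO wells with GLD-1 and probe and 100% = wells lacking GLD-1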
MEX-5 binding: C. elegans MEX-5 TCR-2 RNA binding activity. activity score (negative = inhibition of binding), % at 10 µM. MEX-5/FITC-TCR2 RNA binding, fluorescence polarization; hits give low values. 300,000 tested, 0.38% active;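 active means inhibition past about -25% in most replicates, and total fluorescence under double the plate's negative control median, limit read from the data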;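 further: 0% = DMSO and -100% = 5 µM competing unlabeled TCR2 RNA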
PME-1 primary: blocks human protein phosphatase methylesterase 1. Q9Y570. recombinant PME-1, FP-Rh probe fluorescence polarization. inhibition, % at 5.9 µM. 320,000 tested, 0.53% active. AID 2130;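 active means inhibition above the campaign mean of all compounds plus 3 SD, cut at about 26% in these data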;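 further: competitive labeling of PME-1 active site by serine hydrolase directed probe; 0% = PME-1 with DMSO and 100% = wells lacking PME-1 enzyme; inhibitors block probe labeling so polarization falls and inhibition rises; many of its hits are not listed in these tables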
BCLXL inh: inhibitors of human Bcl-xL; GST-Bcl-xL / FITC-Bim BH3 peptide fluorescence polarization; inhibition, % at 10.9 µM; 320,000 tested, 0.7% active; AID 2129;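 active means inhibition above the mean of all tested compounds plus 3 SD, cutoff set per campaign, cut at about 30% in these data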;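 further: 0% = DMSO wells and 100% = unlabeled Bim-BH3 peptide competitor; inhibitors lower millipolarization by displacing the labeled peptide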
Target sequence (Q07817 whole entry, looked up): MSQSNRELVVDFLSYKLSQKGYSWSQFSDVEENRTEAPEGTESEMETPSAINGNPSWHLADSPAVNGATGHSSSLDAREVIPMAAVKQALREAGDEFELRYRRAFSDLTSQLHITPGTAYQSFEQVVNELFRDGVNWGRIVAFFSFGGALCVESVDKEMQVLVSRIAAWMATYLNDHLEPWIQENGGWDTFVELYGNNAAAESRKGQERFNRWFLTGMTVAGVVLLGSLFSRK
Fam108B counter: Fam108B inhibition, counter-screen for RBBP9 inhibitors. recombinant Fam108B, FP-Rh probe fluorescence polarization. inhibition, % at 9.51 µM. 300,000 tested, 0.33% active. AID 1947;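 active means inhibition above the screen mean inhibition plus 3 SD, computed separately per campaign, cut at about 18% in these data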;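 further: inhibitors lower polarization as less probe binds the enzyme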
AHR activator: human AHR activation; activation, % at 5 µM; 320,000 tested, 2.5% active; AID 2796; AHR-responsive luciferase reporter cells, luminescence; in the data active means activation above about 47%;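 further: 0% = vehicle wells and 100% = reference agonist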
MCL1-BIM inh: MCL1-BIM-BH3 interaction inhibition (human) | GST-MCL1 / FITC-Bim-BH3 fluorescence polarization | inhibition, % at 10.9 µM | 320,000 tested, 0.68% active | AID 2057;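 active means inhibition above the mean inhibition of all tested compounds plus 3 SD, set per campaign, cut at about 40% in these data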;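 further: 0% = DMSO wells and 100% = unlabeled Bim-BH3 peptide control; higher means more loss of mP so more displacement of Bim peptide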
Target sequence (Q07820 whole entry, looked up): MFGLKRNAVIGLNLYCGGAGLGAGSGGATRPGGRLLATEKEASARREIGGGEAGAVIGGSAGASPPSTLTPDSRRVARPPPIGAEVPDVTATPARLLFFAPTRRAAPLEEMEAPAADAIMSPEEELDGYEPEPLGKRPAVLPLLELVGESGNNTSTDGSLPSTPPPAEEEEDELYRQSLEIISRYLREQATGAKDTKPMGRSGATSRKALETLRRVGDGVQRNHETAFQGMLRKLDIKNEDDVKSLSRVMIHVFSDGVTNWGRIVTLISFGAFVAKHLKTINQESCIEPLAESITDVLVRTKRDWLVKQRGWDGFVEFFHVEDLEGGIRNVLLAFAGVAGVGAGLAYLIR
pPAFAH FP inh: inhibitors of human plasma PAF acetylhydrolase (pPAFAH); inhibition, % at 3.39 µM; 330,000 tested, 1.5% active; recombinant pPAFAH, FP-rhodamine probe fluorescence polarization;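 active means inhibition above the mean inhibition across the screen plus 3 SD, cut at about 25% in these data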;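 further: inhibitors block binding of the rhodamine activity-based probe so polarization drops; 0% = enzyme with DMSO and 100% = wells lacking pPAFAH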
Target sequence (Q13093 whole entry, looked up): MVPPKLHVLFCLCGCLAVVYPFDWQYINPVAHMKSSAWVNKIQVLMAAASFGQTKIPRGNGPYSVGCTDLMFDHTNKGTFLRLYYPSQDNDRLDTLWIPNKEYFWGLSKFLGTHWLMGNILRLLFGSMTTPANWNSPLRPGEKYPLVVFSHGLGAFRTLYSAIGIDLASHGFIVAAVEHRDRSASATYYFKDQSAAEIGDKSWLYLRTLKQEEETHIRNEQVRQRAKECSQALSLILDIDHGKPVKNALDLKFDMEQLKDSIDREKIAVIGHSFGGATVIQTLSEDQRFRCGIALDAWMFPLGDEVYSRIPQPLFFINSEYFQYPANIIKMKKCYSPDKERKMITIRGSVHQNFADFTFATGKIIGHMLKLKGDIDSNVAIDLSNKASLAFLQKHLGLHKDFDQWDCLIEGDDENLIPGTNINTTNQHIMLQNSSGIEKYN
* hit, by the source's call; . = not tested or not shown. Some of the compounds tested. The share of hits here may be higher or lower than overall.

SMILES	GLD-1 TGE inh	MEX-5 binding	PME-1 primary	BCLXL inh	Fam108B counter	AHR activator	MCL1-BIM inh	pPAFAH FP inh
Cc1ccc([C@@H]2CC=C(C(=O)O)[C@H](c3ccc(Cl)cc3)N2S(=O)(=O)c2ccccc2C)cc1	-1	.	.	.	.	0	.	7
O=C(CCl)Nc1ncc(S(=O)(=O)c2ccc([N+](=O)[O-])cc2)s1	1	.	.	.	.	0	.	1
Cc1cc(=O)n(CC=C(Cl)Cl)c2ccccc12	-9	-1.4	-2	5	0	16	-2	5
O=C(COC(=O)CSc1ccc(Cl)cc1)Nc1ccc2[nH]c(=O)[nH]c2c1	-1	.	.	.	.	2	.	12
Cn1nc(C(F)(F)F)c(-c2ccc(Br)cc2)c1NC(=O)CSCC(=O)O	2	0.8	4	7	3	0	6	-2
Cc1ccc(S(=O)(=O)Cn2nnnc2CN2CCCC3(CCCCC3)C2)cc1	-4	4.7	-2	1	2	0	4	1
COc1cccc(N(CC(=O)NCCSc2ccc(Cl)cc2)S(C)(=O)=O)c1	-5	0.6	-1	1	7	3	7	2
Cc1ccc(S(=O)(=O)N2[C@@H](c3ccc(Cl)cc3)C(C(=O)O)=C[C@H]2CC2CCCC2)cc1	2	.	.	.	.	0	.	6
Cc1ccccc1S(=O)(=O)N1[C@@H](c2ccc(Cl)cc2)C(C(=O)O)=CC[C@H]1c1ccc(Cl)cc1	-3	.	.	.	.	-1	.	13
O=C(CSc1ccc(Br)cc1)NC1CCCCCC1	-3	.	.	.	.	2	.	3
Cc1nn(C)c(C)c1S(=O)(=O)N1CCCC(C(=O)NCCc2ccc(Cl)cc2)C1 (stereo not given)	4	.	0	-3	-1	-2	1	3
CCCOc1ccc(C(O)C(CN2CCOCC2)c2ccccc2)cc1 (stereo not given)	-2	-1.1	-1	9	2	1	7	1
CCc1cc(C(=O)c2ccc(OC)cc2)c(NC(=O)CN2CCCCC2)s1	17	0.4	-5	-2	-1	3	-1	4
Cc1cc(C)nc(NS(=O)(=O)c2ccc(NC(=O)C3(c4ccccc4)CCCC3)cc2)n1	4	-0.8	3	0	2	1	7	0
CC1CCCC(C)N1C(=O)CSc1nnc(C2CCCCC2)o1 (stereo not given)	5	0.9	1	6	-3	6	3	3
CC1CCC(C(C)C)C(OC(=O)COC(=O)c2ccc(=O)[nH]c2)C1 (stereo not given)	4	-2.3	6	0	0	2	-1	4
O=Cc1c(NCc2ccc(Cl)cc2)c2ccccc2[nH]c1=O	6	-2.3	5	5	-1	4	8	1
CCCc1nc(N)nc2c1C(=O)CC(C)(C)C2	-5	-2.5	-2	5	1	-1	2	2
COc1ccc(C/C(=N\O)c2ccc(OC)cc2)cc1	-6	-1.5	2	-1	-4	3	2	-2
COc1ccc(C(=O)NCC2(c3ccccc3)CCCC2)c(OC)c1	-5	-0.2	0	4	3	3	5	1
O=C(NCc1ccc2c(c1)OCO2)c1ccc(Cl)c(S(=O)(=O)NCc2ccccc2)c1	1	0.3	3	3	3	3	1	5
O=S(=O)(c1ccc(Br)cc1)n1ccc2ccccc21	-1	0.9	-2	-6	-6	30	-4	-6
O=C(CN(Cc1ccccc1F)S(=O)(=O)c1ccc(Cl)cc1)NCCC1=CCCCC1	2	0.4	-3	3	-2	1	0	2
Cc1ccc(OCC(=O)N2CCN(c3nnc(-c4ccccc4)c4ccccc34)CC2)cc1	-1	2.0	3	-32	-4	-6	-12	0
Cc1ccc([C@@H]2CC=C(C(=O)O)[C@H](c3ccccc3)N2S(=O)(=O)c2ccc(C)cc2)cc1	3	.	-3	3	1	-3	6	3
Cc1ccnc(N2C(=O)CSC2c2ccc(Cl)cc2)c1 (stereo not given)	-2	2.2	3	4	1	0	1	-3
NC(=O)c1cc(S(=O)(=O)NCCCc2ccccc2)cs1	8	1.2	1	5	-1	0	-1	4
CC(NS(=O)(=O)OCC(Cl)(Cl)Cl)c1ccc(Br)cc1 (stereo not given)	1	0.1	1	2	-3	0	5	5
CC12CCC(=O)N1C(C(=O)Nc1ccccc1N1CCCCC1)CS2 (stereo not given)	4	.	6	2	.	2	4	-3
CNc1cc(CSc2ccc(Cl)cc2)nc(C)n1	-9	-0.4	1	-1	1	68*	1	1
CC(=O)c1cccc(NC(=O)CSCc2ccc(Br)cc2)c1	0	0.5	0	-2	2	-1	2	-2
CCOc1ccc(C(=O)CCC(=O)N2CCN(c3ccccc3O)CC2)cc1	-10	.	.	.	.	1	.	6
COc1cccc(C2=NOC(C(=O)NCc3ccc(F)cc3)C2)c1 (stereo not given)	9	2.6	3	1	-5	-3	3	-2
O=C(NCCc1ccccc1)C(=O)NCC1(c2ccccc2)CCCC1	6	2.8	5	1	5	4	4	5
CCCc1[nH][nH]c(=O)c1C(c1ccc(Cl)cc1)C(C#N)C#N (stereo not given)	2	1.1	2	10	5	1	12	1
Cc1cc(NC(=O)CCC(=O)N(c2ccc(F)cc2)C2(C(=O)NC3CCCCC3)CCCC2)no1	6	1.3	6	4	2	2	4	0
O=C1CSC(c2ccc(Cl)cc2)N1C1CCCCC1 (stereo not given)	-7	1.7	-3	6	0	0	1	1
CC1CCC(C(C)C)C(OC(=O)CSc2nccc(=O)[nH]2)C1 (stereo not given)	-1	-1.1	-3	-4	0	4	8	-3
N#Cc1c(NC(=S)NC(=O)Cc2cccs2)sc2c1CCCCC2	-7	-2.9	5	7	-15	21	8	-2
Cc1noc(C)c1COC(=O)Cc1ccc(Br)cc1	-1	1.7	-3	4	3	0	5	-2

Given with two lines to a compound: 13 of the compounds above.
Value order – GLD-1 TGE inh, MEX-5 binding, PME-1 primary, BCLXL inh, Fam108B counter, AHR activator, MCL1-BIM inh, pPAFAH FP inh
O=C(NCc1ccc2c(c1)OCO2)c1ccc(Cl)c(S(=O)(=O)NCc2ccccc2)c1
 : 1, 0.3, 3, 3, 3, 3, 1, 5
O=S(=O)(c1ccc(Br)cc1)n1ccc2ccccc21
 : -1, 0.9, -2, -6, -6, 30, -4, -6
O=C(CN(Cc1ccccc1F)S(=O)(=O)c1ccc(Cl)cc1)NCCC1=CCCCC1
 : 2, 0.4, -3, 3, -2, 1, 0, 2
Cc1ccc(OCC(=O)N2CCN(c3nnc(-c4ccccc4)c4ccccc34)CC2)cc1
 : -1, 2.0, 3, -32, -4, -6, -12, 0
Cc1ccc([C@@H]2CC=C(C(=O)O)[C@H](c3ccccc3)N2S(=O)(=O)c2ccc(C)cc2)cc1
 : 3, ., -3, 3, 1, -3, 6, 3
Cc1ccnc(N2C(=O)CSC2c2ccc(Cl)cc2)c1 (stereo not given)
 : -2, 2.2, 3, 4, 1, 0, 1, -3
NC(=O)c1cc(S(=O)(=O)NCCCc2ccccc2)cs1
 : 8, 1.2, 1, 5, -1, 0, -1, 4
CC(NS(=O)(=O)OCC(Cl)(Cl)Cl)c1ccc(Br)cc1 (stereo not given)
 : 1, 0.1, 1, 2, -3, 0, 5, 5
CC12CCC(=O)N1C(C(=O)Nc1ccccc1N1CCCCC1)CS2 (stereo not given)
 : 4, ., 6, 2, ., 2, 4, -3
CNc1cc(CSc2ccc(Cl)cc2)nc(C)n1
 : -9, -0.4, 1, -1, 1, 68*, 1, 1
CC(=O)c1cccc(NC(=O)CSCc2ccc(Br)cc2)c1
 : 0, 0.5, 0, -2, 2, -1, 2, -2
CCOc1ccc(C(=O)CCC(=O)N2CCN(c3ccccc3O)CC2)cc1
 : -10, ., ., ., ., 1, ., 6
COc1cccc(C2=NOC(C(=O)NCc3ccc(F)cc3)C2)c1 (stereo not given)
 : 9, 2.6, 3, 1, -5, -3, 3, -2

Further results:
SMILES	GLD-1 TGE inh	MEX-5 binding	PME-1 primary	BCLXL inh	Fam108B counter	AHR activator	MCL1-BIM inh	pPAFAH FP inh
Cc1cc(=O)[nH]c(SCc2nnnn2-c2ccc(Cl)cc2)n1	5	0.7	1	4	-1	1	-1	-7
Cc1ccc(S(=O)(=O)n2ccc3c2CCCC3=O)cc1	0	1.3	0	0	4	0	1	2
O=C(CSc1nc2ccccc2s1)NCCOc1ccc(Cl)cc1	1	0.6	-5	4	-2	48*	2	1
O=C(O)C(Cc1c[nH]c2ccccc12)NS(=O)(=O)c1ccc(Br)cc1 (stereo not given)	3	-2.8	-5	-3	-1	12	-5	5
CC1(C)C(=O)OC(c2cccs2)C2(CCCCC2)C1=O (stereo not given)	2	0.2	-4	4	-1	0	-3	1
COc1ccc(NC(=O)CN(C)C(=O)c2cccc(NS(=O)(=O)c3ccc(Br)cc3)c2)cc1	7	-0.2	4	4	0	-1	1	13
Cc1ccc(S(=O)(=O)NNC(=O)C2Cc3c(ccc4ccccc34)O2)cc1 (stereo not given)	4	-0.2	-2	3	-7	18	8	-1
COc1ccc(CNC(=O)CSc2ccc(Br)cc2)cc1OC	-6	2.9	0	2	0	3	-3	14
Cc1sc2nc(CSCC(=O)Nc3ccc(C(F)(F)F)cc3)[nH]c(=O)c2c1C	3	.	12	2	.	59*	-6	3
Cc1ccccc1NC(=S)NCCSc1ccc(Cl)cc1	-8	2.0	11	1	-1	-5	1	7
C=CCN(c1ccccc1)S(=O)(=O)c1cccc(C(=O)NNC(=O)c2ccccc2O)c1	7	3.8	0	7	-2	6	7	5
COc1ccc(C(CNC(=O)CSc2ccc(Br)cc2)N2CCOCC2)cc1 (stereo not given)	6	1.0	6	-6	3	2	-11	2
O=C(CC1S/C(=N/N=C2CCCCCC2)NC1=O)Nc1ccc(Br)cc1F (stereo not given)	-3	-0.1	1	2	-5	10	13	4
CC(=O)Nc1nnc(COc2ccc(Cl)cc2)s1	9	-0.9	5	5	0	15	4	-4
CC1C(=O)Nc2ccccc2N1C(=O)c1ccc(O)cc1 (stereo not given)	-4	-1.5	0	-3	-8	2	-6	-5
COc1ccccc1C(=O)NCC1(c2ccccc2)CCCC1	5	2.5	-5	0	-6	2	-1	5
Cc1cccc(OCc2nnc(NC(=O)c3cccs3)s2)c1	-3	1.2	4	0	0	1	3	7
COC(=O)CCC(NS(=O)(=O)OCC(Cl)(Cl)Cl)c1ccccc1 (stereo not given)	7	2.6	-2	8	8	1	8	9
Cc1ccc([N+](=O)[O-])cc1NC(=O)CCSc1ccc(Cl)cc1	9	1.7	-3	5	1	-1	0	5
O=C(NCCc1ccc(Cl)cc1)c1ccc(CS(=O)Cc2ccccc2Cl)o1 (stereo not given)	-6	-1.1	3	0	-2	5	-1	4
CCOc1c(OC)cccc1C(=O)NCC1(c2ccccc2)CCCC1	2	-1.2	-1	3	0	9	0	9
CC(C)(C)c1cc(C(=O)O)nn1-c1ccccc1	-5	-0.9	2	5	-1	1	5	1
C/C(N)=C(/C#N)C(=O)COC(=O)CSc1ccc2ccccc2c1	-1	0.6	5	4	3	-1	6	5
CC(C)(C)c1ccc(C(=O)NCC(=O)OCCN2C(=O)c3ccccc3C2=O)cc1	0	-1.3	5	1	0	7	-2	16
Cn1nc(C(F)(F)F)c(/C=N/OC(=O)c2ccccc2Cl)c1SCc1ccccc1Cl	1	-0.8	0	2	0	-3	1	2
CC(=O)CCCC(NS(=O)(=O)CCC(Cl)(Cl)Cl)c1ccccc1 (stereo not given)	5	-1.3	6	6	3	-2	10	2
Cc1ccc(SCC(=O)OCC(=O)N(C)CC(=O)Nc2ccccc2Cl)cc1	7	-2.2	-10	2	1	-3	3	19

Screening results from PubChem BioAssay.
